Screening data (PubChem BioAssay)
hNpr1 antagonist – human Npr1 receptor antagonism | P16066 | HEK293 hNpr1 GloSensor cGMP, ANP-stimulated luminescence | Potency, µM (doses to about 46.3 µM), for inactives: at the highest dose activity change, negative = inhibition, hits mostly inhibitors | actives 1.6% (n = 76,000); active = well fitted inhibition curve with a large enough effect; inconclusive = small, poorly fitted or top-dose-only effect; inactive = no such curve, though single readings can be large or run the other way;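 further: nearly all actives have a fitted effect of over 60% in size; nearly all hits also lower the signal before the agonist is added; a reference antagonist and vehicle were the controls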
Target sequence (P16066 whole entry, looked up): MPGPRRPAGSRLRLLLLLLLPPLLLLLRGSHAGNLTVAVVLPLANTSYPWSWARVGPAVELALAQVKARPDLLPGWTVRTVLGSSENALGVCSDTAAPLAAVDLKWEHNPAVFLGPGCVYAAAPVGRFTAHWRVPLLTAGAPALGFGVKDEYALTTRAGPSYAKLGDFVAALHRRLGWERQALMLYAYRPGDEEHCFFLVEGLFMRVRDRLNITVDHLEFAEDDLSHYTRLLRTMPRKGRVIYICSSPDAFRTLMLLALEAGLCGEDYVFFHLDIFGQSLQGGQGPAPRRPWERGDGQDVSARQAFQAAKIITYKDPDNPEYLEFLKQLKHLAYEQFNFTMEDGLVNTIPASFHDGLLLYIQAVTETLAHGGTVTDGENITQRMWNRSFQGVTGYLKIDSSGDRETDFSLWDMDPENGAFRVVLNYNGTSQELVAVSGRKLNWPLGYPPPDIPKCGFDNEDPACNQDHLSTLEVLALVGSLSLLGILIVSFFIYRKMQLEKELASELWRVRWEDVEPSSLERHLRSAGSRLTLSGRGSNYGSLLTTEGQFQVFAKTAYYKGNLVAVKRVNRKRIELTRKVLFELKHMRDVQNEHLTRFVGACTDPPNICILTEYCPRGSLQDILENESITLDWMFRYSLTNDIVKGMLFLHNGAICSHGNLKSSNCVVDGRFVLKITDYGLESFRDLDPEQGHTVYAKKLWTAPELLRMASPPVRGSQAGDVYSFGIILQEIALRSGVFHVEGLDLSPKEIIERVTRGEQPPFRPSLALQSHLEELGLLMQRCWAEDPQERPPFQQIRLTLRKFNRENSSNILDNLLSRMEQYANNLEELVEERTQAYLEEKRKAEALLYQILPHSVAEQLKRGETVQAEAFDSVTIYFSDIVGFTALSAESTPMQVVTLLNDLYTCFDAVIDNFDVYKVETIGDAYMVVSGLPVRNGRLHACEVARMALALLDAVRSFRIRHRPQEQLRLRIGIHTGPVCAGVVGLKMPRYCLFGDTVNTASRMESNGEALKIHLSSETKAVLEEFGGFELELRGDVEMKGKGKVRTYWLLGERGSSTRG
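Compound pre-incubated 30 min at room temperature on GloSensor-loaded HEK293 cells stably carrying hNpr1 and the pGS-40F cGMP biosensor. Stimulation uses hNppA at 0.1 nM final; luminescence is taken at baseline and 20 min post-agonist.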
Starred values were filed as active, the others as inactive; u = inconclusive; [ ] = remark or other dose. On the % scale 0 is the no-effect control and ±100 the full control effect; potency means the concentration at half of the fitted maximal effect.

SMILES	hNpr1 antagonist
CCOCCCNC(=O)N1CC(c2nnc(-c3ccncc3)o2)C2(CCOCC2)C1 (configuration not stated)	5%
CN1CCN(C(=O)CC[C@@H]2CNC(=O)[C@@H]3C[C@H](NC(=O)c4ccccc4)CN23)CC1	3%[70.6 µM]
CCCNc1cc(N2CCC(CCC(=O)N3CCN(c4cccc(C)c4)CC3)CC2)ncn1	u
CC(=O)N1CCc2c(nc(-c3cccnc3)nc2NCc2cc(C)on2)C1	6%
CN1CCCCCCN(S(=O)(=O)c2ccccc2)[C@H]2CCC[C@H]2C1=O	-9%
CCCS(=O)(=O)N1CCC(Oc2ccccc2-c2nc(C3CC3)no2)C1 (configuration not stated)	1%
Cc1ccccc1-c1ccc2c(n1)CN(Cc1ccccc1)C(=O)CO2	-4%[70.6 µM]
CC(C)OC(=O)CC1NCCNC1=O (configuration not stated)	-15%
CC(C)Cc1nc2nccc(-c3ccncc3)n2n1	3%
CN(C)C(C(=O)N1CCN(c2ccc(C#N)cc2)CC1)c1ccccc1F (configuration not stated)	-1%
CCN1c2cc(C(=O)Nc3ccc4c(c3)OCCO4)ccc2C(=O)N2CCCCCC21 (configuration not stated)	u
CCc1ccc(C(=O)N2CCN(C(=O)c3nnn4c3COC(c3ccc(C)cc3)C4)CC2)cc1 (configuration not stated)	u
CNC(=O)[C@@H]1CN(S(=O)(=O)c2cnc[nH]2)C[C@H]1c1n[nH]c(C)n1	-2%
FC(F)(F)c1ccc(CN2CCC3(CC2)CC(c2ccccc2)=NO3)cc1	-5%
O=C1NC[C@@H](CCC(=O)N2CCN(c3ccccn3)CC2)N2C[C@@H](NCc3ccccc3)C[C@@H]12	8%
O=C(Cn1cnc2sccc2c1=O)NC1CCCc2c1[nH]c1ccccc21 (configuration not stated)	-11%
Cn1nccc1-c1cc2c(ccn2C)c(C(=O)NCc2cccnc2)n1	3%[70.6 µM]
CSc1ccc2cc(CN3CC[C@@H](O)C3)c(-c3ccc(Cl)cc3)nc2c1	0%
CC1Oc2ccc(NC(=O)NCc3ccccc3)cc2CN(C2CCCc3ccccc32)C1=O (configuration not stated)	-10%
Cc1ccc(C)c(NC(=O)[C@H]2CCC[C@H]2NC(=O)c2ccncc2)c1	2%
COc1ccc(-c2cc(C[C@H]3CNCC[C@H]3CC(=O)N3CCCCC3)no2)cc1	2%[70.6 µM]
Cc1noc([C@@H](C)NS(C)(=O)=O)c1C(=O)O	3%[70.6 µM]
COc1cccc(NC(=O)CCC2CCN(C(=O)c3cnc(C)[nH]c3=O)CC2)c1	8%
Cc1ocnc1C(=O)NC1CC(c2nnc(Cn3cccn3)n2C)C1 (configuration not stated)	15%
CNC(=O)[C@@H](c1ccccc1)N1CCC[C@H]1C(=O)N1CCOCC1	-7%[70.6 µM]

3 of these compounds, set out differently:
hNpr1 antagonist	Structure
u	CCN1c2cc(C(=O)Nc3ccc4c(c3)OCCO4)ccc2C(=O)N2CCCCCC21 (configuration not stated)
u	CCc1ccc(C(=O)N2CCN(C(=O)c3nnn4c3COC(c3ccc(C)cc3)C4)CC2)cc1 (configuration not stated)
-2%	CNC(=O)[C@@H]1CN(S(=O)(=O)c2cnc[nH]2)C[C@H]1c1n[nH]c(C)n1

New compounds follow.
SMILES	hNpr1 antagonist
N#Cc1ccc(C(=O)N2CCOC[C@H](Oc3ccc(C(F)(F)F)cc3)C2)cc1	-10%[70.6 µM]
CC(C)CN[C@@H]1C[C@H](COc2ccc(S(C)(=O)=O)cc2)[C@@H](O)[C@H]1O	-2%[70.6 µM]
O=C(c1ccc(F)cc1)N1CCC(OCCOc2cccnc2)CC1	9%
Cc1ccc(CN2CC[C@H](c3nnc(-c4ccccc4F)o3)C2)o1	0%[70.6 µM]
C[C@@]1(O)CCN(C(=O)c2ccc(-c3noc(C4CC4)n3)cc2)C[C@@H]1O	2%
COC(=O)[C@@H]1Cc2c([nH]c3ccccc23)[C@H]2C[C@H](N3CCCCC3)C[C@@H](c3ccccc3F)N21	3%
Cc1ccc(CNC(=O)N2CCCCCCNC(=O)[C@@H]3CCCC[C@@H]32)cc1	0%
CC(=O)c1cc(CN2CCC(c3nnc4n3CCCCC4)CC2)n(C)c1	1%
CN(C)CC(O)COc1ccc(CN2CCN(c3ncc[nH]c3=O)CC2)cc1 (configuration not stated)	0%
COc1ccc(NC(=O)COc2cccc(-c3nnc4n3CCCC4)c2)cc1OC	1%
CO[C@H]1C(=O)N(C2CCN(S(=O)(=O)c3cccnc3)CC2)[C@H]1c1ccncc1	3%
O=C(C1CCN(c2nc(-c3ccccc3)nc3c2CCC3)CC1)N1CCCNCC1	5%
CC(C)Oc1cccc(-c2nc(C(=O)N(C)Cc3ccccc3)cs2)c1	-21%
Cc1ccc(C2Cn3nnc(C(=O)N4CCN(C(=O)c5ccc(F)cc5)CC4)c3CO2)cc1 (configuration not stated)	2%
O=C1CN(C(=O)CCC(=O)N2CCc3c(nc4cc(-c5ccccc5)[nH]n4c3=O)C2)c2ccccc2N1	-14%
O=C1NC2(CCN(Cc3cccc4ccccc34)CC2)Oc2ccccc21	0%
CCOC(=O)C1=C(C)N=C2SC=C(CC(=O)Nc3cccc(OC)c3)N2C1c1cccc(OC)c1 (configuration not stated)	-24%
O=C(Cc1cccc(F)c1)NCc1nnc2c(-c3nc(C4CC4)no3)cccn12	-7%
Cc1cccc(-c2noc([C@@H]3Cc4nc[nH]c4CN3C(=O)CC(C)(C)CC(=O)O)n2)c1	-9%[70.6 µM]
Cc1ccsc1CN1CCC(C(=O)N2CCCCCCNC(=O)CC2)CC1	-5%
Cc1ncc(CN2CCN(C(=O)c3cccn3C3CC3)CC(O)C2)[nH]1 (configuration not stated)	18%
COCCN1CCOc2nc(-c3cc(F)ccc3OC)ncc2C1=O	3%[70.6 µM]
O=C1CCC2(CCCN(c3nc4ccccc4s3)C2)CN1Cc1cccnc1 (configuration not stated)	6%
CC1(COc2ccccc2)COc2ccc(C(=O)N3CCN(c4ccccn4)CC3)cc2N1 (configuration not stated)	-12%
CC1=C[C@@H](CNS(=O)(=O)c2ccccc2)[C@H](C(C)C)C[C@H]1CC(=O)O	5%[70.6 µM]

Grouped by structure, the entries above containing a CF3 group.
SMILES	hNpr1 antagonist
FC(F)(F)c1ccc(CN2CCC3(CC2)CC(c2ccccc2)=NO3)cc1	-5%
N#Cc1ccc(C(=O)N2CCOC[C@H](Oc3ccc(C(F)(F)F)cc3)C2)cc1	-10%[70.6 µM]

Continued.
SMILES	hNpr1 antagonist
CNC(=O)[C@@H]1C[C@@H](O)CN1C1CCN(C(=O)Cc2cccc(C)c2)CC1	8%
CCCc1nc(C)c(CNC2CCN(C(=O)c3ccccc3)CC2)s1	0%
O=C(c1nc(-c2ccsc2)c2cnccn12)N1CCOCC1	19%[70.6 µM]
OC1(CN2CCN(c3nccs3)CC2)CCCNC1 (configuration not stated)	1%
CC(C)CN1C(=O)c2cccn2CC1CN (configuration not stated)	u
CN(C(=O)Nc1ccc(Cl)cc1)C1CCCc2ccccc21 (configuration not stated)	-6%[70.6 µM]
CCNC(=O)N1CC[C@H]2CC(=O)N(c3ccccc3)CC[C@H]2C1	3%[70.6 µM]
Cc1ccc(C(=O)N2C[C@@H](F)C[C@H]2C(=O)N2CCCCC2)cc1	-9%
COCCCN(CCC(=O)NCCC(C)C)C(=O)c1ccoc1	7%
CCOc1ccccc1NC(=O)Cn1c(N2CCCCC2)nc(C)c(C)c1=O	-14%
O=C(NC1CCN(Cc2ccccc2)CC1)c1c(OCC2CC2)cc(=O)n2c1CCCCC2	2%
CC(C)=CCN1CCNC(=O)C1CC(=O)NC(C)(C)c1cccc2ccccc12 (configuration not stated)	-2%
O=C(NCCCN1CCCC1=O)c1cn2ccnc(-c3ccc(F)cc3)c2n1	-10%
CCOC(=O)C1CCCN(C(=O)Cc2ccc(N(Cc3cccc(C)c3)C(=O)c3ccco3)cc2)C1 (configuration not stated)	-5%
CC(=O)N1CCc2nn(CC(=O)Nc3ccc(F)c(F)c3)c(=O)cc2C1	3%
COc1ccccc1CN1CCC2(CC1)CC(O)CCO2 (configuration not stated)	-17%
Cc1noc2c(Nc3ccncc3)cc(-c3ccc(F)cc3)nc12	12%[70.6 µM]
C[S+](=O)([O-])c1ccc(-c2nccc3c(=O)cc(-c4ccncc4)oc23)cc1	-6%[70.6 µM]
O=C(c1cccc2[nH]ccc12)N1CCC2(CC1)N=C(c1ccc(Cl)cc1)NO2	11µM*
O=C(c1ccco1)N1CCC(Cc2nc(-c3ccccc3)no2)CC1	u
COc1ccccc1N1CCN([C@H]2[C@@H]3OC[C@@H](O3)[C@@H](NCc3ccc(N(C)C)cc3)[C@@H]2O)CC1	5%
COCCN1C(=O)c2ccccc2C(C(=O)Nc2ccc(C)cn2)C12CCCCC2 (configuration not stated)	1%
COC1CCOC2(CCN(C(=O)c3ccccc3F)CC2)C1 (configuration not stated)	5%
O=C(Nc1ccsc1)N[C@H]1C[C@H]2C(=O)NC[C@@H](CCC(=O)N3CCC(O)CC3)N2C1	-1%[70.6 µM]
Cc1ccc(C2NC(=O)N(CC(=O)Nc3cc(F)cc(F)c3)C3=C2C(=O)OC3)cc1 (configuration not stated)	-26%
Following part:
SMILES	hNpr1 antagonist
Cc1cc(CNC(=O)c2cc(-c3ccc(CO)cc3)cc3c2OCCN3C)no1	1%[70.6 µM]
COCCNc1ncnc2c1CCN(C(=O)CCc1n[nH]c(C)n1)CC2	-2%
CCOCCN1C(=O)NC(c2ccc(OC)cc2)C2=C1COC2=O (configuration not stated)	-2%
O=C(c1ccc(Cl)s1)N1CCc2nn(Cc3ccccc3)c(=O)n2CC1	0%
Cc1cc(C(=O)N2CCCC(c3noc(COc4ccccc4)n3)C2)nn1C (configuration not stated)	2%
OCC1(CC2CC2)CCCN(Cc2cccc(OCc3ccccn3)c2)C1 (configuration not stated)	-1%
CC(O)c1cc2n(n1)CCCN(C(=O)Cn1nc3ccccc3n1)C2 (configuration not stated)	-4%
CC(C)[C@H]1CN(CCC(=O)O)C[C@@H]1NC(=O)CCC1CCCC1	6%
CN1CCC(NC2(Cc3cc(C(C)(C)O)on3)COC2)CC1	-1%[70.6 µM]
Cc1ccc(S(=O)(=O)Nc2ccc3c(c2)CN(Cc2ccccc2)C(=O)CO3)cc1	-2%
O=C(Cc1ccccn1)N1CCCC(c2nn(-c3cccc(Cl)c3)c(=O)[nH]2)C1 (configuration not stated)	14%
COc1ccc(C(=O)N2CCC(C(NC(=O)c3ccccc3C)C(=O)NCC(C)C)CC2)cc1 (configuration not stated)	1%
COc1ccccc1CC(=O)N1CCC(n2nccc2NC(=O)c2ccccc2C)CC1	9%
CC(=O)N1C[C@@H]2OCC(=O)N(C)[C@@H]2C1	9%[122 µM]
CN1C[C@H](NC(=O)Nc2cccnc2)CCC[C@@H](C(=O)NCc2cc(F)cc(F)c2)CC1=O	-3%
CC[C@H]1CN(C(=O)N2CCOCC2)CC[C@H]1CC(=O)NCc1ccccc1	4%[70.6 µM]
NC(=O)[C@@H]1CN(C(=O)C2CCC2)C[C@H]1COc1ccccc1	-3%
Cc1noc(-c2nc(-c3ccc(F)c(F)c3)no2)n1	4%
Cc1ccccc1C(=O)N1C[C@@H](COCC2CC2)[C@H](c2ccncc2)C1	2%
COC1CN(c2cccc(F)c2)C12CCN(C(=O)c1ccncc1)CC2 (configuration not stated)	0%
N#Cc1cccnc1Oc1ccccc1CN1CCCCC1	-8%
N#CCn1nc2n(c1=O)CCN(C(=O)Cc1ccsc1)CC2	2%
COCc1nc(C2CCCNC2)no1 (configuration not stated)	-3%
COCCNC(=O)[C@H]1C[C@H](Oc2cccnc2)CN1C(=O)NCc1ccc(OC)cc1	-1%
Cc1noc(C)c1-c1cc2cc(CN(C)C)oc2c(Nc2cccnc2)n1	-1%[70.6 µM]

5 entries out of the list above, ordered by their value in hNpr1 antagonist, high to low:
| SMILES | hNpr1 antagonist |
| --- | --- |
| CC(C)[C@H]1CN(CCC(=O)O)C[C@@H]1NC(=O)CCC1CCCC1 | 6% |
| Cc1ccccc1C(=O)N1C[C@@H](COCC2CC2)[C@H](c2ccncc2)C1 | 2% |
| COc1ccc(C(=O)N2CCC(C(NC(=O)c3ccccc3C)C(=O)NCC(C)C)CC2)cc1 (configuration not stated) | 1% |
| COC1CN(c2cccc(F)c2)C12CCN(C(=O)c1ccncc1)CC2 (configuration not stated) | 0% |
| CC(O)c1cc2n(n1)CCCN(C(=O)Cn1nc3ccccc3n1)C2 (configuration not stated) | -4% |

Continued:
SMILES	hNpr1 antagonist
COc1ccc(C(=O)N2CCN(c3cc(-c4ccc(F)cc4)[nH]n3)CC2)cc1OC	u
CCc1noc(-c2ccn3c(CNC(=O)c4ccccc4F)nnc3c2)n1	7%
CCc1nc2c(c(-c3ccc(Cl)cc3)n1)CN(Cc1cccc3ccccc13)CC2	0%
O=C([C@@H]1C[C@H](F)CN1C(=O)c1cccc(Br)c1)N1CCCCC1	1%
COCc1cc(C[C@@H]2CC[C@H](O)[C@@H](CNC3CCN(C)CC3)O2)no1	-2%[70.6 µM]
COc1ccc(OC)c(C(O)Cn2ccn3nc(-c4ccc(C(C)C)cc4)cc3c2=O)c1 (configuration not stated)	u
CCOc1cc(CN2CCOc3ccc(C(=O)NCc4ccc(C)cc4)cc3C2)ccc1O	-10%
Cn1ccnc1-c1cn(CC2(c3ccccc3F)CCCC2)nn1	-10%
CCC(NCc1cn(CCC(N)=O)c2ccccc12)c1cccs1 (configuration not stated)	2%
O=c1[nH]c(C2CCCN(Cc3cccnc3)C2)nn1-c1ccccc1 (configuration not stated)	0%[70.6 µM]
CCCNC(=O)C1(CCO)CCN(c2ncccn2)C1 (configuration not stated)	3%
CCCC1(CO)CCCN(Cc2nnc(-c3cccnc3)o2)C1 (configuration not stated)	-4%
Cc1cc(C)c(C)c(S(=O)(=O)N2CCn3c(nn(CC4CC4)c3=O)C2)c1C	-9%
CN1CCCC(CNc2ncc(C(C)(C)C(=O)O)c(N3CCOCC3)n2)C1 (configuration not stated)	1%
CN(Cc1noc2c1CCCC2)C(=O)Cn1cccc(C(F)(F)F)c1=O	1%

This is a subset. The share of hits here may be higher or lower than overall.
